2A StopGo = FMDV 2A StopGo reporter, luciferase signal | AID 1159524 | hit rate 1.2% among 410,000 | human cells with a luciferase reporter of 2A StopGo recoding; control for the full effect not named in the record | Potency, µM (doses to about 57.9 µM), inactives show at the highest dose signal change, negative = less light; active = well fitted falling curve with a large enough effect; inconclusive = small, poorly fitted or top-dose-only effect; inactive = no such curve, though single readings can be large or run the other way; tested in HEK293T cells; also: % is scaled to controls: 0 for no effect and ±100 for the full control effect; nearly all actives have a fitted effect of over 45% in size; luciferase light after 4 h
SARS PLpro yeast = inhibitors of SARS-CoV papain-like protease in yeast; S. cerevisiae expressing SARS-CoV PLpro, growth rescue; control for the full effect not named in the record; Potency, µM (highest dose often 32.9 µM), for the others: top-dose activity, positive = growth rescue; hit rate 0.19% among 330,000; also: 0% is about no effect; nearly all actives have a fitted effect of over 55% in size; growth read by luminescence after 48 h
Cruzain inh noDet = inhibitors of Trypanosoma cruzi cruzain without detergent. hit rate 2.3% among 200,000. purified cruzain, Z-FR-AMC fluorescence, no detergent. Potency, µM, without a hit: max response, negative = inhibition, hits mostly inhibitors. AID 1476; active = well fitted curve in the direction sought with a large enough effect; inconclusive = small, poorly fitted or top-dose-only effect, or another doubt; inactive = no such curve, though single readings can be large; an effect the other way counts as inactive or inconclusive;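 also: plate controls were enzyme without inhibitor for no effect and buffer without enzyme for full effect; nearly all actives have a fitted effect of over 40% in size; top concentration of the series not given in the record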
Target sequence (P25779 123-467 limits assumed): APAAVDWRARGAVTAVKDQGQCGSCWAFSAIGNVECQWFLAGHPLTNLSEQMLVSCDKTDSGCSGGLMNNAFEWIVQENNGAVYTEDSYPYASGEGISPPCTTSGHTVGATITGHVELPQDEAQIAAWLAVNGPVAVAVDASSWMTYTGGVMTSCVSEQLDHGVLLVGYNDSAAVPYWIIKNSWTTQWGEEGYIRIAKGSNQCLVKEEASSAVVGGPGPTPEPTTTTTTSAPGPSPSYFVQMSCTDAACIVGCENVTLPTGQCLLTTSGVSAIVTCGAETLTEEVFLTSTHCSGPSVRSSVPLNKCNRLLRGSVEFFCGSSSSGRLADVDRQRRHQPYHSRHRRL
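Detergent-free condition (0.00005% Triton X-100) in acetate buffer pH 5.5 with DTT. 1.5 nM enzyme and compound were pre-mixed 15 min, then 2 uM Z-FR-AMC substrate added; reaction progress from fluorescence change between first and third reads (60 s).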
RE007 growth inh = less growth of the S. pombe RE007 Vpr strain | S. pombe RE007 Vpr strain, BacTiter-Glo ATP luminescence, 24 h; control for the full effect not named in the record | Potency, µM (top dose mostly 92.2 µM), for the others: top-dose activity change, negative = less growth | hit rate 0.21% among 360,000; active = well fitted falling curve with a large enough effect; inconclusive = small, poorly fitted or top-dose-only effect; inactive = no such curve, though single readings can be large or run the other way;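 also: % is scaled to controls: 0 for no effect and ±100 for the full control effect; nearly all actives have a fitted effect of over 50% in size; the assay follows cell death caused by Vpr and the record does not say whether a fall means rescue or toxicity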
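Fission yeast RE007 carrying one integrated HIV-1 vpr copy, seeded at OD 0.01 in PMG+AL medium with 23 nL pinned compound. Grown 24 h at 30 degrees; viability read by BacTiter-Glo luminescence after 5 min.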
NS1 function inh = blocks influenza NS1 protein function; Potency, µM (series often up to 46.1 µM), for inactives: at the highest dose activity, positive = more growth; hit rate 0.4% among 270,000; S. cerevisiae slowed by influenza A NS1, growth recovery by OD600; also: actives are rising curves; nearly all actives have a fitted effect of over 50% in size
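Compounds were scored for reversing the slow growth caused by influenza A NS1 in S. cerevisiae, measured by optical density at 600 nm. Assay medium contained 2% galactose at pH 6.0; NS1-free yeast of the same strain were the positive control.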
MARV entry inh = inhibitors of Marburg virus binding or cell entry. Marburg virus pseudotyped entry inhibition, cell reporter; control for the full effect not named in the record; about a third of the inactives were read at about 46 µM. Potency, µM (series often up to 37.8 µM), for the others: at the top dose activity change, negative = inhibition, most hits filed as inhibitors. hit rate 1.8% among 300,000; active = well fitted inhibition curve with a large enough effect; inconclusive = small, poorly fitted or top-dose-only effect, or effect the other way; inactive = flat fitted curve, though single readings scatter; tested in HEK293 cells; about a fifth of its hits are not listed in these tables; also: % is scaled to controls: 0 for no effect and ±100 for the full control effect; luciferase read-out
Cruzain Triton = cruzain (T. cruzi) inhibition with detergent; AID 1478; hit rate 0.43% among 200,000; purified cruzain, Z-FR-AMC fluorescence, 0.01% Triton; Potency, µM, for the others: max response, negative = inhibition, most hits filed as inhibitors; P25779; active = well fitted curve in the direction sought with a large enough effect; inconclusive = small, poorly fitted or top-dose-only effect, or another doubt; inactive = no such curve, though single readings can be large; an effect the other way counts as inactive or inconclusive;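 also: plate controls were neutral wells for no effect and buffer without enzyme for full effect; nearly all actives have a fitted effect of over 40% in size; top concentration of the series not given in the record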
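Enzyme 1.5 nM, Z-FR-AMC 2 uM, NaOAc 100 mM pH 5.5, DTT 5 mM, Triton X-100 0.01%; 15 min RT compound preincubation; kinetic ex360/em450, 60 s delta.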
LASV entry inh = Lassa virus entry inhibition | Potency, µM (series often up to 37.9 µM), inactives show at the highest dose activity change, negative = inhibition, actives largely listed as inhibitors | hit rate 1.2% among 300,000 | AID 540256 | Lassa virus pseudotype entry inhibition, cell reporter; control for the full effect not named in the record; active means well fitted inhibition curve with a large enough effect; inconclusive means small, poorly fitted or top-dose-only effect, or effect the other way; inactive means flat fitted curve, though single readings scatter; tested in HEK293 cells; also: % is scaled to controls: 0 for no effect and ±100 for the full control effect; nearly all actives have a fitted effect of over 50% in size; luciferase read-out
* = called active by the depositor; ? = inconclusive; . = not tested or not shown; & = joins results of further samples; [ ] = remark or other dose. Unless noted, calls follow the shape of the dose curve; as a rule, active means well fitted rising curve with a large enough effect; inconclusive means small, poorly fitted or top-dose-only effect; inactive means no such curve, though single readings can be large or run the other way. Potency is read from the fitted curve at half-maximal effect.

SMILES	2A StopGo	SARS PLpro yeast	Cruzain inh noDet	RE007 growth inh	NS1 function inh	MARV entry inh	Cruzain Triton	LASV entry inh
C=CC(=O)N1C/C(=C/c2ccccc2)C(=O)/C(=C\c2ccccc2)C1	7.9µM*	.	.	?	.	2.8µM*	.	?
COCCNC(=O)C(c1ccc(OC)cc1)N(Cc1ccco1)C(=O)CCC(=O)Nc1ccccn1 (stereo not given)	5%	1%	.	1%	-4%	-11%[46.1 µM]	.	-25%[46.1 µM]
CC(C)(C)c1ccc(C(=O)Nc2nc3nc(-c4ccccc4)cc(=O)n3[nH]2)cc1	-6%	.	-13%	.	.	7%[46.1 µM]	-6.6%	-2%[46.1 µM]
C=CCn1c(SCC(=O)Nc2ccc(F)cc2F)nnc1-c1cnccn1	38%[activator]	1%	.	-10%	3%	.	.	.
CC(=O)NBr	.	.	-6%	.	0%	?	-6.7%	7%
COc1ccc(C(=O)NN=C2CCCC2)cc1OC	-2%	1%	.	-3%	0%	-2%[46.1 µM]	.	-1%[46.1 µM]
COc1cccc(CN2CCC(N(CCc3ccccc3)Cc3ccccc3)CC2)c1OC	?	-9%	15%	4%	-5%	7.9µM*	2.0%	?
Cc1cc(C)nc(N2CCC(C(=O)Nc3ccc4c(c3)CCC4)CC2)n1	-9%	3%	?	-8%	0%	-14%	-0.4%	6%
O=C1OCCN1C(=O)[C@H]1[C@H](c2ccccc2)C(c2ccc(F)cc2)=NN1c1ccccc1	?	-4%	?	2%	.	.	6.7%	.
Fc1ccc(CNc2ccccn2)cc1	37%[activator]	4%	.	?	10%	.	.	.
C=CCn1c(=O)c2c(nc3n2CCCN3Cc2ccccc2)n(C)c1=O	-17%	-9%	.	-1%	-29%	.	.	.
COCCNC(=O)NC(=O)CN1CCN(C(c2ccccc2)c2ccccc2)CC1	0%	1%	.	-3%	.	?	.	-23%[46.1 µM]
CN(C)/C=N/C(=S)Nc1ccccc1F	24%	2%	1%	-30%	-32%	23%	-2.5%	4%
COc1cc(C2C(C(=O)OCCC#N)=C(C)NC3=C2S(=O)(=O)c2ccccc23)cc(OC)c1OC (stereo not given)	-5%	-1%	?	-16%[3.69 µM]	-9%	-2%	-2.4%	-2%
COC(=O)c1ccccc1NC(=O)CCCN1C(=O)C(c2ccccc2)Oc2cccnc21 (stereo not given)	0%&-16%	2%	19%	1%	0%	.	-2.1%	11%[46.1 µM]
Cc1[nH]c2ccccc2c1C(=O)C(=O)NCCCc1ccccc1	-4%	3%	.	-4%	-10%	.	.	.
COC(=O)c1ccc2c(c1)N(Cc1cc(C)ccc1C)C(=O)c1ccccc1S2	-20%	.	-29%	.	.	.	-5.3%	0%[46.1 µM]
CON(C)c1nc(OCCNC(=O)OCc2ccc(Cl)cc2C)nc(N(C)C)n1	-27%	-1%	?	3%	?	?	-2.8%	-2%
c1ccc(-c2cc(-c3nnc4sc(-c5ccccn5)nn34)[nH]n2)cc1	-11%	1%	-5%	13%	-15%	-16%	-2.0%	?
O=C(Nc1ccc(S(=O)(=O)N2C[C@@H]3C[C@@H](C2)c2cccc(=O)n2C3)cc1)c1ccc(F)cc1	-4%	5%	.	-4%	.	-4%	.	.
Cc1nc2ccccn2c1-c1nnco1	-18%	1%	-8%	-11%	-10%	0%[46.1 µM]	-0.8%	0%
COc1ccccc1N1CCN(C(=O)CSc2nc(C)c(Cc3ccccc3)c(=O)[nH]2)CC1	?	0%	?	6%	1%	-22%	-4.1%	3%
Oc1ccc(Cc2ccccc2Cl)c(O)c1	?	.	.	-15%	.	10%	.	?
Cc1cc(/C=C(/C#N)C(=O)O)c(C)n1CCC(C)C	8%	-12%	-20%	5%	8%	15%	-11%	8%
O=C(NCc1ccccc1)c1cc(-c2cccs2)on1	75%[activator]	-6%	-7%	-3%	-23%	-4%	-4.6%	19%

Next part.
SMILES	2A StopGo	SARS PLpro yeast	Cruzain inh noDet	RE007 growth inh	NS1 function inh	MARV entry inh	Cruzain Triton	LASV entry inh
O=C(CNCCc1ccc(F)cc1)Nc1cc(F)ccc1F	-23%	0%	.	9%	0%	.	.	.
CC1(C)C(=O)C2(C(=O)NCc3ccccc3)CCC1C2 (stereo not given)	-6%	1%	6%	-5%	20µM*	-19%	3.8%	13%
Cc1ccccc1NC(=O)c1cccc(C(F)(F)F)c1	6%	-7%	-15%	13%	2%	19%	-0.5%	10%
COc1ccc(NC(=O)N2CCCC2C(=O)Nc2ccc(C)cc2C)cc1 (stereo not given)	0%	2%	.	9%	-13%	22%[46.1 µM]	.	0%
O=C(CSc1nc2ncc(Br)cc2[nH]1)Nc1ccccc1-c1ccccc1	?	6%	.	1%	6%	.	.	.
COc1cc(-c2ccno2)ccc1S(=O)(=O)N1CCN(c2cccc(Cl)c2)CC1	-25%	.	?	.	.	.	-1.5%	-29%[46.1 µM]
N=c1nc(N)nc2n1NC(c1ccc(F)cc1)=CS2	28%	-8%	-8%	3%	-113%	?	-2.5%	?
Cc1cc(NC(=O)CN2C(=O)S/C(=C\c3ccccc3)C2=O)no1	-7%	12%	?	0%	14%	15%	1.7%	-12%
C=CCOC(=O)C1=C(C)NC(SCC(N)=O)=C(C#N)C1c1cccs1 (stereo not given)	-24%	0%	-7%	12%	-4%	?	-11%	-24%
COC(=O)c1ccc(NS(=O)(=O)c2ccc(S(=O)(=O)N3CCOCC3)cc2)cc1	-14%	-2%	.	22%	.	4%	.	11%
O=C(COc1ccccc1Cl)N1CCc2ccccc21	20%	8%	.	-1%	-14%	?	.	0%
O=C(CCS(=O)(=O)Cc1ccc(Cl)cc1)NCCCN1CCN(c2ccccc2F)CC1	?	5%	-5%	-16%	8%	?	-4.6%	3%
CCOC(=O)c1ccc(NC(=O)CCS(=O)(=O)c2ccc(C)cc2)cc1	-21%	.	-8%	.	.	.	-4.3%	?
CCCN(CCC)C(=O)Cn1c(=O)n(-c2ccc(OC)cc2OC)c(=O)c2c3c(sc21)CCC3	-12%	.	1%	.	.	13%[46.1 µM]	-3.2%	13%[46.1 µM]
O=C1ON=C(c2cccc([N+](=O)[O-])c2)/C1=C/c1ccc(O)cc1	?	0%	.	-6%	.	?	.	6%
Cc1ccc(NC(=O)CSCC(=O)NCCc2ccccc2)cc1	27%	-3%	.	4%	-2%	1%	.	-1%
CCOC(=O)c1cc2n(n1)C(C(F)(F)C(F)(F)F)CC(C)N2 (stereo not given)	-18%	3%	10%	0%	0%	24%	9.6%	4%
Cc1ccc(NC(=S)N2CC(C)OC(C)C2)cc1C (stereo not given)	0%	2%	.	-2%	6%	?	.	26%[46.1 µM]
CCOc1ccccc1C(=O)NCc1ccc2c(c1)CCN2C(=O)c1ccccc1	-28%	.	12%	.	.	.	0.9%	?
O=C(CN1C(=O)/C(=C\c2cccc(F)c2)Oc2ccccc21)N1CCN(c2ccccn2)CC1	-18%	12%	?	.	9%	?	44%[activator]	0%
Cc1ccc(C(=O)n2nnc3ccccc32)cc1[N+](=O)[O-]	-29%	-18%	-4%	-5%	2%	8%	-1.3%	?
O=C(NC1CCN(C(=O)c2ccccc2Br)CC1)c1ccccc1	-16%	0%	.	-9%	1%	2%[46.1 µM]	.	4%[46.1 µM]
COc1ccc(CCNC(=O)c2cc3c(-c4ccc(OC)c(OC)c4)nn(C)c3s2)cc1OC	-17%	.	?	.	.	?	-11%	?
Cc1nc(NC(=O)C2CC2)sc1C(=O)Nc1cccc(Cl)c1	-19%	-9%	.	-7%	-6%	-14%[46.1 µM]	.	?
NCCCC[C@@H](C(=O)N1CCNCC1)n1cc([C@@H](N)CO)nn1	-10%	4%	.	-9%	-1%	.	.	.

(more compounds)
SMILES	2A StopGo	SARS PLpro yeast	Cruzain inh noDet	RE007 growth inh	NS1 function inh	MARV entry inh	Cruzain Triton	LASV entry inh
CCCC[n+]1ccn(-c2nc3c([N+](=O)[O-])cccc3n2C)c1	-3%	-7%	.	-2%	4%	.	.	.
COc1ccc(-c2nc(CN3C(=O)CN=C(c4ccccc4)c4cc(Cl)ccc43)c(C)o2)cc1	-22%	.	4%	.	.	?	-1.6%	9%[46.1 µM]
Cc1ccc2c(c1)N(C(=O)CCC(=O)NCCCN1CCN(C)CC1)CCO2	0%	1%	.	-8%	7%	.	.	.
CC(=O)N1/C(=C/c2ccc(N(C)C)cc2)C(=O)c2ccccc21	20µM*	-32%	.	4%	.	13µM*	.	?
CCN1c2ccccc2-c2nc(SCC(=O)NCc3ccc(C)cc3)ncc2S1(=O)=O	-15%	.	-4%	.	.	.	3.7%	-18%[46.1 µM]
CCCCN(C(=O)c1cc(-c2ccco2)nc2ccccc12)c1c(N)n(CCCC)c(=O)[nH]c1=O	3%	-3%	.	-5%	.	-19%[46.1 µM]	.	?
CCOCCCNC(=O)Nc1cc(C(=O)NCc2ccc(C(C)C)cc2)ccc1N1CCCC1	-11%	.	?	.	.	.	-8.7%	?
Cn1cnc([N+](=O)[O-])c1Oc1cccc2ccccc12	28µM*	?	1%	-16%	-10%	?	-3.3%	0%
O=C(Nc1cc(Cl)cc(Cl)c1)c1ccc(F)c(S(=O)(=O)N2CCCC2)c1	?	.	25µM*	.	.	.	-2.6%	?
COc1cc(CN(C(=O)c2ccc(C)cc2)c2ccccn2)cc(OC)c1OC	-9%	.	9%	.	.	?	-2.6%	-6%[46.1 µM]
Cc1ccccc1NC(=O)COC(=O)c1c[nH]c(=O)[nH]c1=O	-11%	-1%	.	33%	10%	?	.	5%
CN(C)c1ccc(CNc2ccc3c(c2)ncn3C(C)(C)C)cc1	-29%	0%	.	4%	-2%	23%[46.1 µM]	.	?
CN1CCN(CP(=O)(N2CCOCC2)N2CCOCC2)CC1	-11%	-8%	-9%	1%	5%	5%	-5.7%	2%
O=C(NCc1ccc2c(c1)OCO2)C1CCN(c2ncccn2)CC1	-5%	0%	-5%	0%	3%	-9%	-3.4%	-1%
O=C(NCC(=O)N(CC1CCCO1)C(C(=O)NC1CCCC1)c1ccc(F)cc1)c1ccco1 (stereo not given)	2%	8%	-2%	9%	-1%	-2%[46.1 µM]	-0.8%	-21%
CCc1ccc(-n2c(=O)c3c(C)c(C(=O)N(C)C)sc3n(Cc3ccccc3F)c2=O)cc1	-18%	.	9%	.	.	.	0.8%	1%[46.1 µM]
CCCCN1C(=O)/C(=C/C=C2\Oc3ccccc3N2CC)SC1=S	5%	-1%	.	6%	-6%	?	.	22%[46.1 µM]

Not a hit list, and some 4.8% of all compounds hit somewhere here.
